Sa ugtP lethal: growth inhibition of S. aureus ugtP deletion strain; S. aureus RN4220 ugtP deletion, OD600 growth, 16 h; some inactives read as strong as hits; growth inhibition, % (test concentration not listed); hit rate 0.54% among 330,000;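 active = z-score under -3 and OD600 up to 0.15 on both plates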;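 note: plate controls were untreated wells for no effect and antibiotic for full effect; wells of about 80 µL received 100 nL stock; the first replicate is given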
BJeLR lethal: BJeLR cell viability loss | BJeLR (HRASV12) viability, CellTiter-Glo ATP luminescence, 48 h; reference of the scale not given here | inhibition, % (no concentration beside the values) | hit rate 0.17% among 300,000 | AID 1554;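 active = replicate mean above 50%; inconclusive = above 50% but judged a plate artefact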;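 note: 50 nL library stock added to about 25 µL; numbers are from one replicate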
PrP UTR inh: suppresses PrP 5' UTR mRNA reporter expression | cell-based PrP 5' UTR mRNA reporter, plate reader | inhibition, % (concentration not given with the values) | hit rate 0.35% among 340,000;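 active = every replicate at 50% or more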;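 note: 0 = median of the neutral control wells; tested in H4 reporter cells; numbers are from one replicate; inactives centre near -14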
Mtb hypoxia inh: inhibitors of hypoxia-regulated fluorescent reporter in Mycobacterium tuberculosis; M. tuberculosis hypoxia-regulated fluorescent reporter, fluorescence; fluorescence inhibition, % (concentration not given with the values); hit rate 0.1% among 300,000;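 active = 35 to 45% if threefold the growth effect, above 45% if 1.5-fold the growth effect; inactive = the rest, general growth blockers included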;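 note: wells of about 50 µL received 100 nL stock; 0% = vehicle wells and 100% = reference inhibitor wells; whole bacteria with a GFP reporter of the hypoxia response; strong numbers were not always called active; many hits fall short of the cut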
RN4220 kill: S. aureus RN4220 growth inhibition; OD600, 16 h; inhibition, % (concentration not given with the values); hit rate 0.33% among 330,000; AID 1259311;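 active = z-score of -3 or lower and OD600 up to 0.18 on both plates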;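 note: plate controls were untreated cells for no effect and reference antibiotic for full effect; stock transfer was 100 nL into about 80 µL; one replicate is shown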
Bead autofluor: flagged as autofluorescent in microsphere protease counterscreen; compound autofluorescence counterscreen, microsphere flow cytometry; hits give high values; fluorescence intensity (test concentration not listed); hit rate 3.1% among 360,000;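 active = at least 3 SD above the mean of all compounds, about 16000 in these data; inconclusive = too few beads counted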;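 note: 100 nL of 1 mM stock went into each well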
Mtb hypoxia inh growth: also measured in Mtb hypoxia inh; calls as there; growth inhibition, %; measured here: M. tuberculosis growth (absorbance);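 0% = vehicle and 100% = reference antibiotic; read after six days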
* = called active by the depositor; ? = inconclusive; . = not tested or not shown; & = joins results of further samples. Not a hit list; about 4.1% have a hit in one of these screens.

Values run as follows: Sa ugtP lethal	BJeLR lethal	PrP UTR inh	Mtb hypoxia inh	Mtb hypoxia inh growth	RN4220 kill	Bead autofluor
> COc1ccc(N2CCN(C(=O)c3ccc4[nH]c(C)c(C)c4c3)CC2)cc1
 : 17	5	-13	7	-5	0.0	5581
> O=C1c2ccccc2C(=O)C12OC2c1ccc(Cl)cc1Cl (stereo unspecified)
 : 10	.	-12	9	16	12	2484
> CCc1ccccc1NC(=S)N(CCN(C)C)C(C)c1ccco1 (stereo unspecified)
 : -1	17	-48	13	-2	2.3	4838
> CCCn1cc([C@@H]2C[C@H]3CN(Cc4cccc(Cl)c4)C(=O)[C@]34CCCN24)c(C)n1
 : 7	-2	-12	-1	3	3.2	6608
> COC(=O)CSc1[nH]c(=O)cc(C)c1C#N
 : 3	-6	-9	4	6	3.0	?
> Cc1cccc(N2CCN(C(=O)Cn3sc4nc(C)cc(C)c4c3=O)CC2C)c1 (stereo unspecified)
 : 37	3	-15	-7	8	17	6176
> O=C(CSc1ccccc1)N1CCN(S(=O)(=O)c2cccs2)CC1
 : 12	-12	1	-6	-10	7.6	4613
> Cn1c(Cc2ccccc2)nnc1SCc1cc(=O)n2ccsc2n1
 : 1	-4	-19	4	5	5.8	3829
> CC(C)(CO)CNC(=O)CCc1nnc(C2(c3ccc(Cl)cc3)CCC2)o1
 : 6	4	-9	11	0	-2.4	2094
> COc1cc2c(cc1NC(=O)C(C)NCc1ccccc1)oc1ccccc12 (stereo unspecified)
 : -4	1	-16	1	3	8.1	2334
> Cc1cc(=O)[nH]c(SCC(=O)NCC2CCCCC2)c1C#N
 : 0	.	-10	2	9	6.4	4337
> Cc1nc2cc(NC(=O)N3c4ccccc4CC3C)ccc2o1 (stereo unspecified)
 : 4	2	-27	1	-6	3.5	6386
> Cc1ccc(OCc2cc(C(=O)NCC3COCCO3)no2)cc1C (stereo unspecified)
 : 0	0	-10	-4	8	3.4	5842
> Cc1ccc(S(=O)(=O)N2CCN(C(=O)C3=COCCO3)CC2)cc1C
 : 11	2	4	.	.	2.8	3893
> CCn1cc(S(=O)(=O)N2CCN(c3ccc(Cl)cc3)CC2)cn1
 : -1	-1	-16	8	11	2.0	6403
> COc1cccc(NC(=O)COC(=O)c2cccnc2)c1
 : 5	-9	-20	18	7	6.2	9932
> CCOC(=O)C1CCCN(C(=O)c2cc(S(=O)(=O)N3CCCCCC3)ccc2OC)C1 (stereo unspecified)
 : 5	.	-9	7	3	1.2	3406
> CCOc1ccc(CCNC(=O)COC(=O)/C=C/c2ccc(OC(F)F)c(OC)c2)cc1OCC
 : 15	-2	-16	3	4	3.1	7434
> COc1cccc(OCC(=O)N(C)Cc2nc(-c3ccccc3)no2)c1
 : 9	-16	11	-4	-12	2.9	4615
> O=C(C1=C(O)C(=O)N(c2ccccc2)C1c1ccc([N+](=O)[O-])cc1)c1cccs1 (stereo unspecified)
 : 2	2	-3	-9	0	4.4	4553
> COn1c(SC2CCCCC2)nc2ccccc2c1=O
 : 34	-6	-6	2	2	4.7	17818*
> N#Cc1c(N=CN2CCOCC2)sc2c1CCCCC2
 : -2	.	.	5	6	3.3	.
> CC1=NOC(=O)/C1=C\c1ccc(-c2ccc(Cl)c(C(=O)O)c2)o1
 : .	5	-25	.	.	.	3693
> COCCn1c(SCC(=O)NCc2ccccc2)nc2ccccc21
 : 0	-7	-13	7	-3	3.2	3027
> COc1cc(-n2nnnc2SC)c(OC)cc1Cl
 : -9	0	-18	1	5	1.8	3946
> CC(Cc1ccccc1)N1C(=O)c2cccc([N+](=O)[O-])c2C1=O (stereo unspecified)
 : 22	2	-11	7	1	3.2	3871
> CCOC(=O)CN1C(=O)NC(CCc2ccccc2)C(C(=O)OC)=C1C (stereo unspecified)
 : -8	.	.	12	10	4.1	.
> CCOC(=O)CSc1nc2cc(OCC)ccc2cc1C#N
 : -3	6	-57	13	5	4.7	?
> CN1CCN(C(=O)Nc2cccc(-c3ccccc3)c2)CC1
 : -1	4	1	8	2	1.2	6016
> O=C(CNC(=O)c1ccc(-c2ccccc2)cc1)OCc1ccc(Br)cc1
 : -8	-8	-25	-10	3	1.5	2182
> CCN(CC)CCNC(=O)c1ccc(NC(=O)c2cccc(S(=O)(=O)Nc3ccc(C)cc3)c2)cc1
 : -13	11	-21	1	-7	-3.1	2300
> CCCc1nnc(SCC(=O)Nc2ccc(Cl)cc2Cl)o1
 : 7	11	7	14	17	0.4	3461
> CC(=NNC(=S)NC(C)C)c1ccccc1
 : 0	.	.	20	6	6.9	.
> CC(NC(=O)Cn1nc(C(=O)O)c2ccccc2c1=O)C12CC3CC(CC(C3)C1)C2 (stereo unspecified)
 : -8	8	-7	2	2	8.1	3545
> Cc1nc(Nc2c(Cl)cccc2Cl)sc1C(=O)Nc1ccccc1
 : -21	13	-17	5	4	-2.0	2036
> Cc1sc2nc(CN3CCOCC3)nc(N3CCOCC3)c2c1C
 : -7	6	-11	5	-2	-16	3008
> O=C(CSc1nnc(-c2ccc(S(=O)(=O)N3CCCC3)cc2)o1)NCc1ccccc1
 : 12	4	2	8	-2	6.0	4728
> Cc1ccc(OCCSc2ncccn2)c(C)c1
 : 7	-2	-43	1	-1	13	3449
> CC(C)Cn1cnc2c(=O)oc3ccccc3c21
 : 14	-1	-54	-14	-11	20	3316
> CC(C)N=C1SCC(C)(/C=N/O)S1 (stereo unspecified)
 : .	5	-20	.	.	.	10480
> COc1ccc(C(=O)NCc2cc(C(C)C)no2)cc1OC1CCN(C(C)C)CC1
 : 9	-6	-17	2	-2	3.8	4458
> Cc1ccc(S(=O)(=O)N(C)c2cc(S(N)(=O)=O)c(C)cc2C)cc1
 : -1	.	-1	4	0	4.2	4328
> CC1CCc2cc(F)cc3c(=O)c(C(=O)O)cn1c23 (stereo unspecified)
 : 99*	1	0	-9	-8	97*	4371
> C(=N\N(c1ccccc1)c1ccccc1)/c1ccc(N2CCOCC2)s1
 : .	-4	-15	.	.	.	2493
> CC1(C)C(=O)Nc2ccccc2N1C(=O)Cn1ncc(Cl)c(Cl)c1=O
 : 10	3	-38	3	10	5.0	5659
> CSc1n[nH]c(NC(C)=O)n1
 : -3	9	-11	7	1	6.3	2462
> CC(=NNC(=O)c1ccco1)c1cccc(NC(=O)c2ccc(C)s2)c1
 : -11	.	.	2	-5	-3.6	.
> CCOC(=O)C1=CN(Cc2ccccc2)CCC1=O
 : 8	.	-17	4	-2	0.0	2926
> Cc1[nH]nc2c1C1(CCC(c3ccccc3)CC1)C(C#N)=C(N)O2 (stereo unspecified)
 : -2	-8	-9	4	12	6.7	7454
> O=C(O)c1ccc2c(c1)C(=O)N(Cc1ccccc1)C2=O
 : 4	9	-19	9	12	5.5	10395
> O=[N+]([O-])c1cc(S(=O)(=O)NCCN2CCOCC2)ccc1Sc1nnnn1-c1ccccc1
 : 7	-19	-8	8	13	0.9	2610
> Cc1ccc(S(=O)(=O)c2n[nH]n3c2nc(=O)c2ccccc23)cc1
 : 0	1	-22	2	2	7.4	3929
> C=CCNC(=O)c1ccccc1NC(=O)c1ccccc1
 : -5	7	17	-8	-5	-0.4	8705
> COc1ccccc1OCCNC(=O)c1cccc(S(=O)(=O)NCc2ccccc2)c1
 : -2	.	-20	2	2	-1.6	3074
> CCCN1CCN(C(=O)Nc2ccc(C(=O)OCC)cc2)CC1
 : 2	-1	-18	5	9	3.7	20252*
> Cc1nnc(NC(=O)CSc2ccc3nnc(-c4cccnc4)n3n2)s1
 : 2	4	.	1	-1	0.3	.
> CS(=O)(=O)Cc1cc(Sc2ccccc2)nc(-c2ccncc2)n1
 : 4	-9	-21	-2	1	5.0	2520
> CCCCCSc1nc2c(c(=O)[nH]c(=O)n2C)n1C(C)C
 : -10	-4	-15	7	16	-7.9	4778
> CC1CCN(C(=O)COC(=O)c2cc(=O)[nH]c3ccccc23)CC1
 : -6	.	-39	1	13	-4.8	3784
> CC1(C)Cc2c(ccc3ccccc23)C2=C(C(=O)N3CCCC3)C(=O)C(=O)N21
 : 5	-8	-39	-3	13	8.2	4458

Next results
Values run as follows: Sa ugtP lethal	BJeLR lethal	PrP UTR inh	Mtb hypoxia inh	Mtb hypoxia inh growth	RN4220 kill	Bead autofluor
> O=[N+]([O-])c1ccc2[nH]ncc2c1
 : 3	-3	-9	7	9	3.6	3282
> Cc1cc(C)c2nc(N(CCN(C)C)C(=O)c3ccc4ccccc4c3)sc2c1
 : -13	-1	-6	5	-4	-14	5505
> CCOC(=O)N1CCN(C(=O)c2cc(COc3ccc(OC)cc3Cl)on2)CC1
 : 0	-4	-39	1	5	0.4	6277
> COc1ccc(C(C(=O)NC2CCCC2)N(C(=O)c2snc(C(N)=O)c2N)c2ccccc2OC)cc1OC (stereo unspecified)
 : .	3	-17	.	.	.	3495
> CCOC(=O)/C(=N\Nc1ccccc1Cl)N(C)C1CCCCC1
 : .	0	-20	.	.	.	4008
> O=C(c1ccccc1)c1cccn1CC(=O)N1CCN(c2ccccc2)CC1
 : -11	-2	-7	-2	-5	-0.4	2965
> C/C(N)=C(/C#N)C(=O)CSc1nc(C2CCCCC2)n(-c2ccccc2)n1
 : -10&-4	5	-3&-12	11&3	-1&2	3.1&1.0	4226&9847
> CCOC(=O)Cn1nc(C)c(NC(=O)COc2ccccc2)c1C
 : 4	-5	-14	7	4	2.6	2272

Reprinted at random: seven compounds from above, in no set order.
Values run as follows: Sa ugtP lethal	BJeLR lethal	PrP UTR inh	Mtb hypoxia inh	Mtb hypoxia inh growth	RN4220 kill	Bead autofluor
> O=C(c1ccccc1)c1cccn1CC(=O)N1CCN(c2ccccc2)CC1
 : -11	-2	-7	-2	-5	-0.4	2965
> CCOC(=O)/C(=N\Nc1ccccc1Cl)N(C)C1CCCCC1
 : .	0	-20	.	.	.	4008
> COc1ccc(C(C(=O)NC2CCCC2)N(C(=O)c2snc(C(N)=O)c2N)c2ccccc2OC)cc1OC (stereo unspecified)
 : .	3	-17	.	.	.	3495
> CCOC(=O)N1CCN(C(=O)c2cc(COc3ccc(OC)cc3Cl)on2)CC1
 : 0	-4	-39	1	5	0.4	6277
> CCOC(=O)Cn1nc(C)c(NC(=O)COc2ccccc2)c1C
 : 4	-5	-14	7	4	2.6	2272
> C/C(N)=C(/C#N)C(=O)CSc1nc(C2CCCCC2)n(-c2ccccc2)n1
 : -10&-4	5	-3&-12	11&3	-1&2	3.1&1.0	4226&9847
> O=[N+]([O-])c1ccc2[nH]ncc2c1
 : 3	-3	-9	7	9	3.6	3282

Screens: PubChem, several laboratories
